Screens: PubChem, National Center for Advancing Translational Sciences (NCATS)
Lassa entry inh: inhibitors of Lassa virus binding or cell entry; actives 1.2% (n = 300,000); Lassa virus pseudotype entry inhibition, cell reporter; control for the full effect not named in the record; AID 540256; Potency, µM (titrated, usually from 37.9 µM), inactives show top-dose activity change, negative = inhibition, usual class: inhibitors; active means well fitted inhibition curve with a large enough effect; inconclusive means small, poorly fitted or top-dose-only effect, or effect the other way; inactive means flat fitted curve, though single readings scatter; tested in HEK293 cells; further: on the % scale 0 is the no-effect control and ±100 the full control effect; nearly all actives have a fitted effect of over 50% in size; luciferase read-out
RE007 growth inh: less growth of the S. pombe RE007 Vpr strain; actives 0.21% (n = 360,000); Potency, µM (top dose mostly 92.2 µM), for the others: top-dose activity change, negative = less growth; AID 651644; S. pombe RE007 Vpr strain, BacTiter-Glo ATP luminescence, 24 h; control for the full effect not named in the record; active = well fitted falling curve with a large enough effect; inconclusive = small, poorly fitted or top-dose-only effect; inactive = no such curve, though single readings can be large or run the other way;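 further: on the % scale 0 is the no-effect control and ±100 the full control effect; nearly all actives have a fitted effect of over 50% in size; the assay follows cell death caused by Vpr and the record does not say whether a fall means rescue or toxicity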
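Fission yeast strain RE007, carrying one chromosomally integrated HIV-1 vpr copy, was seeded at OD 0.01 in PMG+AL medium with 23 nL pinned compound. After 24 h at 30 °C and 99% humidity, viability was read by BacTiter-Glo luminescence.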
Marburg entry inh: blocks Marburg virus binding to or entry into cells | Marburg virus pseudotyped entry inhibition, cell reporter; control for the full effect not named in the record; about a third of the inactives were read at about 46 µM | Potency, µM (titrated, usually from 37.8 µM), without a hit: at the highest dose activity change, negative = inhibition, actives largely listed as inhibitors | actives 1.8% (n = 300,000) | AID 540276; active = well fitted inhibition curve with a large enough effect; inconclusive = small, poorly fitted or top-dose-only effect, or effect the other way; inactive = flat fitted curve, though single readings scatter; tested in HEK293 cells; about a fifth of its hits are not listed in these tables; further: on the % scale 0 is the no-effect control and ±100 the full control effect; luciferase read-out
Cruzain inh Det: blocks cruzain activity in presence of Triton detergent; P25779; purified cruzain, Z-FR-AMC fluorescence, 0.01% Triton; Potency, µM, without a hit: max response, negative = inhibition, hits mostly inhibitors; actives 0.43% (n = 200,000); AID 1478;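 further: plate controls were neutral wells for no effect and buffer without enzyme for full effect; nearly all actives have a fitted effect of over 40% in size; top concentration of the series not given in the record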
Target sequence (P25779 123-467 limits assumed): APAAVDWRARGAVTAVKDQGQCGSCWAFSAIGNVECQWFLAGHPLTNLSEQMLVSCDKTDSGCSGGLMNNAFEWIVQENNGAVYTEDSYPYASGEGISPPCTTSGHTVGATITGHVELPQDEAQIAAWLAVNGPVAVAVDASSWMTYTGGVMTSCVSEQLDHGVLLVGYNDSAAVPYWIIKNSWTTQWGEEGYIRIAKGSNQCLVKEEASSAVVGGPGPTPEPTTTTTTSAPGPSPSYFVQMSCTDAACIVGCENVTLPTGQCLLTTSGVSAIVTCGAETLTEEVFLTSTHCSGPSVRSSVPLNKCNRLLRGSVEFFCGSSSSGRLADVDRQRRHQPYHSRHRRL
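Compounds were screened in titration against cruzain (1.5 nM) with 0.01% Triton X-100 to counter colloidal aggregation. Activity was the AMC fluorescence increase over 60 s after adding 2 uM Z-FR-AMC at pH 5.5.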
SARS PLP yeast: SARS-CoV PLP inhibition in yeast. S. cerevisiae expressing SARS-CoV PLpro, growth rescue; control for the full effect not named in the record. Potency, µM (highest dose often 32.9 µM), for inactives: at the highest dose activity, positive = growth rescue. actives 0.19% (n = 330,000); active means well fitted rising curve with a large enough effect; inconclusive means small, poorly fitted or top-dose-only effect; inactive means no such curve, though single readings can be large or run the other way; further: 0% is about no effect; nearly all actives have a fitted effect of over 55% in size; growth read by luminescence after 48 h
Cruzain noTriton: inhibitors of Trypanosoma cruzi cruzain without detergent | purified cruzain, Z-FR-AMC fluorescence, no detergent | Potency, µM, for inactives: max response, negative = inhibition, usual class: inhibitors | AID 1476 | actives 2.3% (n = 200,000);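 further: plate controls were enzyme without inhibitor for no effect and buffer without enzyme for full effect; nearly all actives have a fitted effect of over 40% in size; top concentration of the series not given in the record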
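Purified cruzain at 1.5 nM, pre-incubated 15 min with compound at room temperature in 100 mM sodium acetate pH 5.5, 5 mM DTT, 0.00005% Triton X-100. Reaction started with 2 uM Z-FR-AMC; AMC fluorescence increase over 60 s gives rate.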
NS1 inh: blocks influenza NS1 protein function; S. cerevisiae slowed by influenza A NS1, growth recovery by OD600; Potency, µM (titrated, usually from 46.1 µM), for the others: top-dose activity, positive = more growth; actives 0.4% (n = 270,000); active means well fitted rising curve with a large enough effect; inconclusive means small, poorly fitted or top-dose-only effect; inactive means no such curve, though single readings can be large or run the other way; further: nearly all actives have a fitted effect of over 50% in size
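OD600 was taken as the measure of yeast growth restored by compound in an NS1-expressing S. cerevisiae strain. Cells had been washed out of glucose medium and diluted 1:100 into galactose -URA medium, pH 6.0.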
2A StopGo: FMDV 2A StopGo reporter, luciferase signal | AID 1159524 | human cells with a luciferase reporter of 2A StopGo recoding; control for the full effect not named in the record | Potency, µM (series often up to 57.9 µM), without a hit: at the top dose signal change, negative = less light | actives 1.2% (n = 410,000); active = well fitted falling curve with a large enough effect; inconclusive = small, poorly fitted or top-dose-only effect; inactive = no such curve, though single readings can be large or run the other way; tested in HEK293T cells; further: on the % scale 0 is the no-effect control and ±100 the full control effect; nearly all actives have a fitted effect of over 45% in size; luciferase light after 4 h
Active calls of the source: *; ? = inconclusive; / = not tested or not shown; & = joins results of further samples; [ ] = remark or other dose. Unless noted, the call rests on the fitted dose curve; in most records, active means well fitted curve in the direction sought with a large enough effect; inconclusive means small, poorly fitted or top-dose-only effect, or another doubt; inactive means no such curve, though single readings can be large; an effect the other way counts as inactive or inconclusive. Potency means the concentration at half of the fitted maximal effect.

Molecule,Lassa entry inh,RE007 growth inh,Marburg entry inh,Cruzain inh Det,SARS PLP yeast,Cruzain noTriton,NS1 inh,2A StopGo
Cn1c(=O)c(=O)n(C)c2cc(S(=O)(=O)N3CCN(C4CCCCC4)CC3)ccc21,/,-4.3%,2.9%,-0.7%,5.0%,-3.3%,5.2%,-11.0%
CC(=O)N(C)c1cc([N+](=O)[O-])ccc1OCc1ccccc1,12.1%,-4.3%,1.5%,/,/,/,/,-24.5%
O=C(NCn1cnccc1=O)c1ccccc1,-0.5%,19.6%,4.0%,3.9%,4.1%,-8.2%,-1.6%,8.7%
Cc1ccc(C)c(NC(=O)COC(=O)CC2c3ccccc3CCN2S(=O)(=O)c2ccc(F)cc2)c1 (stereo unspecified),-20.7%,4.4%,?,-6.4%,2.0%,-2.8%,29.0%,-10.3%
S=C(NCc1ccc(Cl)cc1)NC12CC3CC(CC(C3)C1)C2,?,9.0%,?,-1.0%,-32.3%,-27.7%,-31.7%,?
Nc1ccc(-n2nnnc2CN2CCOCC2)cc1,11.7%,-4.6%,?,-1.0%,-0.8%,6.3%,6.0%,-18.8%
CCc1nnc(NC(=O)Cn2c(=O)oc3ccccc32)s1,4.2%,-3.8%,1.0%,2.1%,-6.3%,-5.5%,-3.6%,0.9%
Cc1ccc(C)c(NC(=O)CN2C(=O)c3ccccc3C2=O)c1,-3.0%,28.6%,21.6%[46.1 µM],/,/,/,/,-14.9%
COc1ccc(S(=O)(=O)N2Cc3ccccc3CC2C(=O)Nc2cc(Cl)ccc2Cl)cc1 (stereo unspecified),14.6%[46.1 µM],/,?,-0.3%,/,?,/,0.2%
COc1ccccc1CCNC(=O)C(=O)NCC1OCCN1S(=O)(=O)c1ccc(C)cc1 (stereo unspecified),/,7.0%,/,/,-4.5%,/,-10.7%,?
O=C(CCCN1C(=O)S/C(=C\C=C\c2ccccc2)C1=O)Nc1ccc(O)cc1,?,-4.3%,?,/,2.1%,/,11.4%,-3.2%
COc1ccc(-c2nc(CS(=O)CC(=O)NC3CCC(C)CC3)c(C)o2)cc1OC (stereo unspecified),/,-1.9%,/,/,-12.3%,/,-3.7%,12.9%
Cc1ccc(-c2nnnn2CS(=O)(=O)c2ccccc2)cc1,19.2%,-4.3%,0.3%,3.6%,4.0%,-12.8%,-4.0%,51.3%[activator]
O=C(Nc1ccc(Cl)cn1)c1cccc(F)c1,2.1%,-18.6%,?,-1.8%,13.2%,6.3%,-5.2%,13.6%
COc1cccc(CCNC(=O)CCCC(=O)c2ccccc2)c1,/,-14.5%,/,/,-1.7%,/,-1.0%,-4.6%
COc1ccc(C(=O)N2CCC(C(=O)Nc3ccc(Cl)cc3)CC2)cc1,-5.7%[46.1 µM],/,10.5%[46.1 µM],-6.6%,/,-22.4%,/,-9.5%
C=C(C)C1CC=C(C)/C(=N/NC(=O)c2ccc(NC(=O)c3cccc(C)c3)cc2)C1 (stereo unspecified),-15.3%,19.1%,-3.7%,-3.3%,9.4%,-2.3%,-4.8%,17.7%
Cc1ccccc1N=C1SCC(=O)N1Cc1ccccc1,-2.4%,10.8%,-27.7%,-2.7%,-27.0%,-4.0%,-22.4%,?
CSc1ncc(C(=O)Nc2ccccc2Cl)c(C)n1,10.1%,-4.6%,6.5%,/,9.9%,/,2.6%,10.6%
CC(/C=C1\SC(=S)N(NC(=O)c2cccc(O)c2)C1=O)=C\c1ccccc1,-1.0%,3.7%,-0.4%,-10.6%,-87.6%,7.8%,12.2%,-15.2%
O=C(/C=C/c1cn(CC(O)CN2CCCCC2)c2ccccc12)c1cccs1 (stereo unspecified),?,-7.7%,?,-11.9%,22.1%,-7.6%,12.4%,-15.7%
CCOC(=O)N1CCN(C(=O)c2ccc(CS(=O)(=O)c3c(Cl)cccc3Cl)o2)CC1,/,3.3%,-4.8%,0.7%,2.0%,-4.3%,-22.4%,-27.0%
O=C(c1ccccc1)N1CCN(C(=O)c2nn3c(C(F)(F)F)cc(-c4ccccc4)nc3c2Br)CC1,-33.3%[46.1 µM],-5.6%,?,/,0.7%,/,10.3%,-25.4%
NC(=O)c1nsc(C(=O)N(c2ccc(F)cc2)C(C(=O)NC2CCCC2)c2ccncc2)c1N (stereo unspecified),/,-5.7%,-1.3%[46.1 µM],/,-1.4%,/,6.0%,-4.9%
CNC(=O)c1cc(C(=O)c2ccc(F)cc2C(F)(F)F)c[nH]1,/,-12.4%,/,/,1.5%,/,-0.6%,?
CC(=O)c1c(C)[nH]c(C(=O)Nc2cccc(S(=O)(=O)N(C)c3ccccc3)c2)c1C,?,0.8%,13µM*,/,-5.8%,/,/,-10.2%
CC(C)C(=O)NC(Nc1ccc(S(N)(=O)=O)cc1)C(Cl)(Cl)Cl (stereo unspecified),?,12.5%,13.6%,2.9%,?,0.4%,?,12.1%
Cc1nc2ccc(C(=O)N3c4ccccc4CC3C)cc2s1 (stereo unspecified),/,-0.3%,/,/,-0.7%,/,-4.6%,-3.9%
CC1Sc2ccc(S(=O)(=O)N3CCC(C(=O)N(C)Cc4ccccc4)CC3)cc2NC1=O (stereo unspecified),-4.0%[46.1 µM],-0.3%,?,/,-3.3%,/,-5.8%,-41.6%
Cc1ccc(O)c(-c2cc(C(F)(F)C(F)F)nc(-c3ccccc3)n2)c1,1.0%,-8.1%,13.2%,5.3%,4.3%,-3.1%,?,-12.6%
COc1ccccc1-c1nnc(NC(=O)c2ccc(S(=O)(=O)N(C)Cc3ccccc3)cc2)o1,?,-17.8%,?,-2.9%,16.3%,15.9%,-40.2%,?
COc1ccc(CCNc2oc(Cc3cccc4ccccc34)nc2C#N)cc1OC,?,1.9%,?,-7.7%,-1.5%,28.2%,-40.2%,28.2µM*
C=CCC1(CC=C)CCCN1C(=O)CC1C(=O)NCCN1Cc1cc(OC)cc(OC)c1 (stereo unspecified),-11.7%[46.1 µM],-8.0%,?,/,-1.2%,/,-2.2%,7.2%
CCCOc1ccccc1Nc1nnc(C)c(=O)[nH]1,-10.1%,8.8%,3.4%,5.7%,3.5%,-7.6%,-2.9%,-6.7%
CCN(CC)C(=O)Cn1cc(SCC(=O)NC)c2ccccc21,18.1%,-17.7%,11.1%[46.1 µM],/,-0.3%,/,/,13.1%
Cc1c(C(=O)N2CCOCC2)[nH]c2ccc(OCc3ccccc3)cc12,-17.3%,?,-16.8%&-16.8%,-4.4%,-24.0%,?,-60.7%,-14.6%
CCCCCNC(=O)CN(c1ccc2c(c1)OCO2)S(C)(=O)=O,3.9%,-8.1%,-15.4%,2.9%,-3.3%,3.3%,10.5%,-20.8%
CCC1CN(C(=O)N2CCC(C(=O)NCCC3=CCCCC3)CC2)c2ccccc2O1 (stereo unspecified),1.8%[46.1 µM],/,/,-2.1%,/,16.0%,/,-16.5%
CN1CCN(c2ncnc3scc(-c4ccccc4Cl)c23)CC1,-12.9%,-25.1%,?,/,-6.2%,/,11.0%,?
COc1cccc(CC(=O)OCC(=O)NCC(=O)Nc2cccc(C)c2C)c1,-2.5%,6.2%,21.7%,/,-5.3%,/,/,-17.5%
CC1(C)Cc2c(sc(NC(=O)/C=C/C(=O)O)c2C#N)CO1,/,-11.9%,/,/,1.0%,/,-3.6%,-2.0%
O=C(COC(=O)C1CC2C=CC1C2)Nc1ccc2c(c1)OC(F)(F)O2 (stereo unspecified),6.9%,-5.6%,?,-5.6%,-39.4%,-18.5%,-56.4%,8.7%
O=C(COC(=O)c1cccc([N+](=O)[O-])c1)NCC1CCCO1 (stereo unspecified),11.9%,-1.2%,0.8%,/,-2.6%,/,/,-12.0%
CCOC(=O)c1ccc(NC(=O)NC2CC3CCC(C2)N3Cc2nnnn2Cc2ccco2)cc1 (stereo unspecified),-17.0%,3.8%,-4.3%,0.0%,5.6%,-3.6%,-7.2%,?
Cc1ccc(CN2C(=O)c3ccccc3NC2c2cc(Br)ccc2O)cc1 (stereo unspecified),?,1.5%,?,/,-10.7%,/,1.6%,-9.4%
O=C(Nc1c(Br)cc2c(c1Br)Cc1ccccc1-2)C(F)(F)F,-3.0%[46.1 µM],0.8%,1.6%,/,/,/,/,-8.1%
Cc1ccc(-c2noc(-c3ccc(N4CCN(C)CC4)c([N+](=O)[O-])c3)n2)cc1,22.6%[46.1 µM],/,9.1%[46.1 µM],-5.5%,/,-5.8%,/,19.7%
COc1ccc(OC)c2[nH]c(=O)c(CCNS(=O)(=O)c3ccc(Cl)cc3)cc12,13.6%,11.1%,-19.9%&-19.9%[46.1 µM],0.3%,4.1%,?,4.2%,-16.8%
Clc1ccc2c(c1)C1=C(C(c3ccncc3)O2)C(c2ccc(Br)cc2)n2ncnc2N1 (stereo unspecified),-29.0%,4.1%,11.6µM*,-2.3%,-0.6%,?,16.8%,?
CCN(CC)S(=O)(=O)c1ccc(/C=C/C(=O)Nc2cccc(F)c2)cc1,?,34.2%,-20.6%,-8.0%,10.5%,-0.4%,1.6%,?
CC(c1ccccc1)N1C(=O)c2ccc(C(=O)NCc3cccnc3)cc2C1=O (stereo unspecified),?,7.3%,-2.4%,/,-1.5%,/,-5.5%,-21.7%
COc1cccc(C(=O)Nc2ccc3oc(-c4ccc5ccccc5c4)nc3c2)c1,-0.9%[46.1 µM],/,/,-2.4%,/,12.6µM*,/,-0.3%
CCC(C)(C)NC(=O)Cc1ccccc1OC,-3.4%,-11.9%,-17.8%,2.7%,6.2%,-8.8%,0.1%,8.5%
Cc1ccc(OCC(=O)NC(=S)Nc2ccc(Br)cn2)cc1C,-5.2%,3.3%,17.2%[46.1 µM],/,-1.3%,/,0.2%,-7.5%
CCN(Cc1ccccc1)S(=O)(=O)c1cc(C(=O)NC(C)C2CC3CCC2C3)ccc1OC (stereo unspecified),3.16µM*,6.8%,?,-0.4%,14.3%,0.0%,?,-29.1%
COc1ccc(CNc2nc3ccccc3n2C)c(O)c1,?,-24.2%,11.2µM*,/,-0.8%,/,?,11.4%
